Source: PubChem BioAssay
CtBP-E1A inh: inhibitors of CtBP/E1A interaction; AlphaScreen GST-E1A/His-CtBP binding, 1536-well; stronger effect = lower value; control for the full effect not named in the record; activity change, % (test concentration not listed); 340,000 tested, 0.49% active; in the data active means activity change below about -65%; inconclusive means about -30% to -65%; inactive means above about -30%; note: % is set by controls: 0 for no effect and ±100 for the full control effect; compound concentration not given in the record
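Protein mix (5X: 125 nM each GST-E1A, His-CtBP) was incubated with pinned compound 2 h at 37 deg C in dark, in 50 mM Tris pH 8.0 buffer with 300 mM NaCl. Glutathione donor and nickel acceptor beads followed; AlphaScreen signal read after 1 h.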
D2 potentiator: human D2 receptor positive allosteric modulation; P14416; DiscoveRx D2 beta-arrestin cells, luminescence, 90 min; 100% = 57 uM dopamine signal; potentiation, % (test concentration not listed); 360,000 tested, 0.23% active; active = potentiation of 50% or more; inconclusive = 30% to 50%; inactive = 30% or less;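 note: compound concentration not given in the record; tested on top of an EC20 dose of dopamine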
Target sequence (P14416 whole entry, looked up): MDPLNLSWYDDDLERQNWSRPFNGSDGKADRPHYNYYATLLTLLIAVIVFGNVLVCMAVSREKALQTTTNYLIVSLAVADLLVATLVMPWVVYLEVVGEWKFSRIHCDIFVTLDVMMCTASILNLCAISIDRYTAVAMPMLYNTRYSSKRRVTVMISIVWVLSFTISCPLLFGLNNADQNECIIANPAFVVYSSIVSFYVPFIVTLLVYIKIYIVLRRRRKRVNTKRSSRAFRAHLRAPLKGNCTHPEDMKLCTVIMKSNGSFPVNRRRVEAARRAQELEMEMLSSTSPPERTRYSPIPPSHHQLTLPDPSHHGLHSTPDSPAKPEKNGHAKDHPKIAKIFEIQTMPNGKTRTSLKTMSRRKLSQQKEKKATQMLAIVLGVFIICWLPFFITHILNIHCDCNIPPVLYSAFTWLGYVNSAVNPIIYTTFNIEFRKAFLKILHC
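PathHunter beta-arrestin assay in DiscoveRx D2 cells. Compounds were added with an EC20 of dopamine (50 nM final) for 90 min at 37 deg C. Luminescence was read 1 h after detection reagent, with 57 uM dopamine as the EC100 control.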
TRPML1 ag: agonists of human TRPML1 channel | activation, % (test concentration not listed) | AID 624414 | Q9GZU1 | 410,000 tested, 0.12% active | TRPML1-expressing cells, Ca2+ dye fluorescence, FDSS; host cell line not named in the record; reference of the full effect not given here; in the data active = activation above about 50%; inconclusive = about 30% to 50%; inactive = below about 30%; note: 0% is about no effect; the text of the record puts the active cut at 80%
Target sequence (Q9GZU1 whole entry, looked up): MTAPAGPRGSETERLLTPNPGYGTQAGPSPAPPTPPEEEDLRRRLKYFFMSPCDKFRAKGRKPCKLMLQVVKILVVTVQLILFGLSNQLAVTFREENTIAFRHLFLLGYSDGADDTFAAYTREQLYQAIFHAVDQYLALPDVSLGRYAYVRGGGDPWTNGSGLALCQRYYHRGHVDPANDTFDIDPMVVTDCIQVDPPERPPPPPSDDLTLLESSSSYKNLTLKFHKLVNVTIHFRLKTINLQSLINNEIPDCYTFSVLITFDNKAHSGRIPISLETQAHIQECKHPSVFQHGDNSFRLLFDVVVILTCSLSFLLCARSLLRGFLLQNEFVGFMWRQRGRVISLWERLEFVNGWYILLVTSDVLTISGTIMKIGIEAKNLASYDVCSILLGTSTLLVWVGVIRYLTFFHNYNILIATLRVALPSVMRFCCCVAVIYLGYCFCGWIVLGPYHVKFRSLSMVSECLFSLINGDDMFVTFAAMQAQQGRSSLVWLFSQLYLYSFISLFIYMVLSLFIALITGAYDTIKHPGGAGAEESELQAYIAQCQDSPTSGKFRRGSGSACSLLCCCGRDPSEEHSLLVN
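Tetracycline-induced TRPML1-DL cells are seeded and incubated overnight before loading with a no-wash Ca2+ dye and quencher. Agonist activity is taken from the 110 s fluorescence read following compound pin-transfer on an FDSS, before EC80 54-4 challenge.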
Six1-Eya2 blk: Six1/Eya2 interaction inhibition. AlphaScreen GST-Six1/His-Eya2 binding, biochemical; stronger effect = lower value; control for the full effect not named in the record. activity change, % (test concentration not listed). 360,000 tested, 0.56% active. AID 651725; in the data active = activity change below about -65%; inconclusive = about -30% to -65%; inactive = above about -30%; note: % is set by controls: 0 for no effect and ±100 for the full control effect; compound concentration not given in the record
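AlphaScreen luminescence read after one hour at 37 °C in darkness. Pin-transferred compounds met GST-Six1 and His-Eya2 protein (5X stock 250 nM/500 nM) plus glutathione donor and Ni-chelate acceptor beads (5X, 50 ug/mL).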
D2 agonist: human D2 receptor agonism in beta-arrestin assay; P14416; DiscoveRx PathHunter D2 beta-arrestin, luminescence, 90 min; 100% = 57 uM dopamine signal; 360,000 tested, 0.084% active; activation, % (test concentration not listed); in the data active = activation above about 40%; inconclusive = about 15% to 40%; inactive = below about 15%; note: compound concentration not given in the record; the text of the record calls up to 30% inactive
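DiscoveRx PathHunter D2 beta-arrestin cells (2,100/well) attached overnight, then compound-stimulated 90 min at 37 C in HBSS/10 mM HEPES/0.1% Tween-20 buffer; beta-galactosidase complementation read by luminescence after 1 h at ambient temperature. Dopamine 57 uM final (EC100) as control.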
PINK1 modulator: changes PINK1 expression; 410,000 tested, 0.2% active; PINK1 immunofluorescence, high-content cytometry, 24 h; Potency, µM (series often up to 76.6 µM), for inactives: at the top dose activation (PINK1 increase), usual class: activators; AID 624263; active = well fitted activation curve with a large enough effect; inconclusive = small, poorly fitted or top-dose-only effect; inactive = flat fitted curve, though single readings scatter; cell line not stated here;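 note: potency is the fitted concentration of half-maximal effect; % of control where 0% means no effect; nearly all actives have a fitted effect of over 65% in size; a mitochondrial uncoupler was the plate control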
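Compound titrations (5 concentrations, 24 h) on a stable cell line; DMSO and CCCP controls. Endpoint: fixed-cell PINK1 immunofluorescence with mitochondrial, cell and nuclear markers, scanned by microplate cytometer.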
Numbers without * were called inactive; ? = inconclusive; . = no result given; & = joins results of further samples; [ ] = remark or other dose. This is a random part of the collection; about 1.3% have a hit in one of these screens.

nr	Molecule	D2 agonist	D2 potentiator	CtBP-E1A inh	PINK1 modulator	Six1-Eya2 blk	TRPML1 ag
1	CC(=O)c1ccc(N2CCCCC2)c(F)c1	-2.0	-8	-14	-0.7%	13	0.2
2	Cc1cc(C)n(-c2nc3ccccc3nc2N2CCN(C(=O)c3ccccc3)CC2)n1	-4.8	-8	9	0.6%	3	-0.5
3	CCOC(=O)c1sc(NC(=O)COC(=O)CNC(=O)c2ccco2)c(C(=O)OCC)c1C	1.4	-1	-4	8.5%	-10	3.0
4	C/C(=N\OC(=O)Nc1ccc(Cl)cc1)c1ccc(F)c(F)c1	11	-17	10	11%	9	3.6
5	O=C(CSc1ncnc2sc3c(c12)CCC3)Nc1ccccc1C(=O)O	-2.1	2	-1	-0.1%	-1	2.2
6	CCSc1ncc(CO)c(N)n1	2.4	3	0	0.3%	6	0.0
7	CC(C)(C)c1ccccc1OCCOCCN1CCCCCC1	2.8	-10	-2	-0.8%	-2	1.5
8	COc1ccc(N2CCN(CC(=O)Nc3cccc(S(=O)(=O)N4CCOCC4)c3)CC2)cc1	0.9	1	-14	1.1%	3	-0.1
9	Cn1c(=O)c2[nH]c(SCCN)nc2n(C)c1=S	4.1	-3	-2	-1.1%	0	0.0
10	C=CCC1=C/C(=C\c2c(N)n3nc(CC(=O)N4CCOCC4)sc3nc2=O)C=C(OC)C1=O	-5.8	3	-18	0.7%	-10	5.4
11	CC(=O)Nc1ccc(S(=O)(=O)NCCCCNS(=O)(=O)c2ccc(NC(C)=O)cc2)cc1	-2.6	-4	10	2.0%	5	-1.0
12	Cn1c(=O)c2c(ncn2Cc2ccc(Cl)c(Cl)c2)n(C)c1=O	0.4	6	7	1.9%[38.3 µM]	-2	0.3
13	C/C(=N/NC(=O)c1ccc2c(c1)OCCO2)c1ccc([N+](=O)[O-])cc1	1.9	-1	-2	-2.1%	5	0.2
14	CCOC(=O)CNC(=O)CSc1nnc(NC(=O)c2ccc(C)cc2)s1	-4.4	-4	3	5.3%	4	0.3
15	O=C(O)c1cc(NS(=O)(=O)c2ccc(NCc3ccccc3)c([N+](=O)[O-])c2)cc(C(=O)O)c1	-4.7	-4	.	0.9%	-3	.
16	C#CCN(C[C@@H]1[C@@H](OC(=O)Nc2cccs2)[C@@H](OC(=O)Nc2cccs2)Cn2c(=O)n(CCCCCC)c(=O)n21)S(=O)(=O)c1ccc(C)cc1	-8.1	-2	-27	2.5%	-8	-0.1
17	CCOC(=O)CC1=C(C(=O)OCC)C(c2cc(OC)c(OC)cc2OC)C(C#N)=C(N)O1 (stereo unspecified)	-2.2	2	-5	-0.9%	-6	-0.4
18	Cc1cccc(NC(=O)c2ccc([N+](=O)[O-])o2)c1C	5.0	-3	5	-1.0%	-7	-1.1
19	Cc1ccc(NC(=O)CS(=O)CC(=O)NC23CC4CC(CC(C4)C2)C3)cc1 (stereo unspecified)	7.7	-7	6	1.1%	6	0.8
20	CC(C)(C)[C@H]1COC(=O)[C@H](Cc2ccc(F)cc2)CC/C=C/C[C@@H](CC(=O)N[C@H](CO)Cc2ccccc2)C(=O)N1	-2.2	-2	8	0.9%	1	1.1
21	C=CCNC(=O)c1cc(=O)c2ccccc2o1	-2.7	-5	4	6.8%[38.3 µM]	0	0.2
22	O=C(CNc1cccc(S(=O)(=O)N2CCCC2)c1)Nc1cccc(C(F)(F)F)c1	1.5	-16	9	?	-5	2.9
23	O=C(O)C1C2C=CC(O2)C1C(=O)NCc1ccccc1Br (stereo unspecified)	-0.3	-6	8	9.2%[38.3 µM]	6	0.3
24	NC(Cc1ccc(OC(F)F)cc1)C(=O)O (stereo unspecified)	0.6	-2	13	1.1%	1	.
25	O=C(CN1CCN(Cc2ccccc2)CC1)NNC(=O)c1ccccc1	0.0	-4	4	0.0%	2	-0.3
26	CCOC(=O)c1ccccc1NC(=O)Cn1c(=O)n(Cc2ccccc2)c(=O)c2c(C)c(C)sc21	-4.6	-5	1	2.1%&1.7%	-1	2.3&-0.6
27	CNC(=S)Nc1ccc(N2CCN(c3ccc(C(F)(F)F)cn3)CC2)nc1	-1.7	-12	0	0.2%	-8	1.4
28	CCOc1ccc(NS(=O)(=O)c2ccc(C(=O)NC3CCN(Cc4ccccc4)CC3)cc2)cc1	-2.6	-33	-9	2.1%	-3	0.6
29	Cc1cc2occ(CC(=O)OCC(=O)Nc3sc4c(c3C#N)CCC(C)C4)c2cc1C (stereo unspecified)	-0.9	-17	3	0.3%	0	2.2
30	CCOc1ccc(C(N)=O)cc1OC	-3.4	-23	-5	-1.0%	-2	0.4
31	c1nnc(NC2=NCCCCC2)s1	-2.2	-8	-6	1.2%[38.3 µM]	0	0.7
32	OC1c2c(F)cccc2N=C2CCCCN21 (stereo unspecified)	-6.1	-2	7	2.2%	3	-0.2
33	CC1(c2cccc(Br)c2)NC(=O)N(CC(=O)c2ccc3c(c2)OCO3)C1=O (stereo unspecified)	2.3	-2	-4	1.4%	-7	-0.6
34	Cc1ccc(C)c(SCC(=O)OCC(=O)c2ccco2)c1	-2.5	-4	13	3.1%[38.3 µM]	-12	-0.6
35	CC(C)Oc1ncnc2c1[nH]c1ccccc12	8.8	11	.	1.1%	6	0.6
36	CCOC(=O)c1cc(-c2ccccc2)sc1NC(=O)CN1C(=O)NC(CC)(c2ccc(F)cc2)C1=O (stereo unspecified)	-2.1	-7	-3	-0.5%	-6	0.5
37	O=C(NC(=S)NCCc1ccccc1)c1ccccc1F	2.1	1	28	1.5%	15	4.5
38	Cc1ccc(NC(=O)CCn2cccc2)cc1	-1.1	0	-5	-2.3%	-2	0.2
39	C[C@@H]1CN([C@@H](C)CO)C(=O)CCCn2nncc2CO[C@H]1CN(C)C(=O)Nc1ccnc(N2CCOCC2)c1	-8.9	3	7	1.1%	7	0.2
40	COc1ccc(Nc2nccc3c2nnn3C)cc1	-4.1	-4	-1	0.8%	4	0.1
41	CC1CCN(c2c(NCC3CCC(C(=O)NCCc4ccc(Cl)cc4)CC3)c(=O)c2=O)CC1 (stereo unspecified)	0.6	-2	-12	13%	-4	1.8
42	CCc1nn2c(N)c(/C=C3\C=Nc4ccccc43)c(=O)nc2s1	1.3&-1.9	-7&-16	-12&9	-0.9%&10%	-13&-20	1.4&2.7
43	Cc1ccc(-c2noc(C3CCCN(C(=O)c4cccc(Cl)c4)C3)n2)o1 (stereo unspecified)	-2.5	-8	-6	-1.5%	-3	2.8
44	COc1ccc(-c2c(-c3ccc(O)cc3O)n[nH]c2C)cc1OC	0.0	5	-5	?	-20	0.3
45	Cc1ccc(CN(Cc2ccco2)C(=O)c2ccco2)cc1	-3.9	-22	-8	-0.4%	-13	0.7
46	O=C(CNC(=O)c1ccco1)NCc1ccc2c(c1)OCO2	-2.4	6	3	-0.4%	-4	1.5
47	CCn1c(SCC(=O)Nc2cc(C)on2)nc2c(c1=O)SC(C)C2 (stereo unspecified)	2.7	17	1	.	1	1.1
48	N#CC(Sc1ccccn1)c1ccc(Cl)cc1Cl (stereo unspecified)	-6.2	-2	-3	4.8%	21	3.6
49	COc1ccccc1CN1CCN(Cc2cc(OC)c(OC)cc2OC)CC1	-4.2	-74	.	0.5%	20	.
50	Cn1cc(-c2nnnn2-c2ccc(Cl)cc2)c(=O)c2ccccc21	-2.5	-7	5	-3.6%	4	-0.2

Shown screen by screen: entries from further up
5: O=C(CSc1ncnc2sc3c(c12)CCC3)Nc1ccccc1C(=O)O
6: CCSc1ncc(CO)c(N)n1
7: CC(C)(C)c1ccccc1OCCOCCN1CCCCCC1

| Screen / compound no. | 5 | 6 | 7 |
| --- | --- | --- | --- |
| D2 agonist | -2.1 | 2.4 | 2.8 |
| D2 potentiator | 2 | 3 | -10 |
| CtBP-E1A inh | -1 | 0 | -2 |
| PINK1 modulator | -0.1% | 0.3% | -0.8% |
| Six1-Eya2 blk | -1 | 6 | -2 |
| TRPML1 ag | 2.2 | 0.0 | 1.5 |

New compounds follow:
nr	Molecule	D2 agonist	D2 potentiator	CtBP-E1A inh	PINK1 modulator	Six1-Eya2 blk	TRPML1 ag
51	CN(C)C(=O)c1cc(C(=O)c2ccc(F)cc2C(F)(F)F)c[nH]1	1.9	-1	2	2.1%	4	0.4
52	Cc1ccc(S(=O)(=O)N2CCC(=O)N(C(COC(=O)Nc3ccccc3)Cc3ccccc3)CC2)cc1 (stereo unspecified)	-2.9	-2	-7	-0.1%	-3	0.4
53	CC(=O)NC1(c2ccccc2)CCN(CC(=O)N2CCC(C)CC2)CC1	-2.3	-18	.	-0.1%	7	1.7
54	Cc1cc(S(=O)(=O)NCC2CC2)c(Cl)cc1Cl	-2.8	-5	-2	4.4%	1	0.1
55	Cc1ccc(C(=O)NN(CCC#N)C2=NS(=O)(=O)c3ccccc32)cc1	-1.5	-4	2	0.2%	2	-0.6
56	COc1ccc(NC(=O)CNc2cc(C)ccc2C)cc1S(=O)(=O)N1CCOCC1	-8.2	-3	-9	-0.3%	-1	0.1
57	COc1cc2c(cc1OC)C(C(=O)N1CCN(c3ccccn3)CC1)C(c1cccs1)N(C)C2=O (stereo unspecified)	-5.1	0	-18	4.0%	3	-0.2
58	C=CC1C(N2CCOCC2)C(C)(C)S1(=O)=O (stereo unspecified)	-0.6	7	4	-1.1%	11	-0.1
59	CC(C)[C@H](N)c1nnc(SC/C=C/c2ccccc2)o1	1.3	1	-4	-3.6%	2	0.7
60	COc1ccc(CN2CCC(Oc3ccc(C(=O)NCc4ccccn4)cc3)CC2)c(F)c1	-2.6	-20	-5	-0.1%	-5	-0.4
61	O=[N+]([O-])c1cc([N+](=O)[O-])c2nonc2c1Nc1ccc(O)cc1	1.1	-7	.	0.9%	4	-0.7
62	Cc1cccc(NC(=O)CSc2nc3ccccc3nc2N2CCCC2)c1	1.9	-2	44	0.3%	13	0.3
63	Cc1cc(Br)ccc1OCCNCc1ccccc1	-0.4	-20	14	17%	16	0.6
64	C#CCn1c(=O)c2c(ncn2C)n(C)c1=O	-8.4	-7	0	2.7%	-1	0.3
65	COc1ccc(NC(=O)NCCCCc2ccccc2)cc1	-1.1	12	6	-0.9%	4	0.0
66	O=C(Cc1csc(N2CCOCC2)n1)N/N=C/c1ccc(F)cc1	-0.8	-3	-1	-24%[38.3 µM]	2	-0.6
67	Cn1nc(C(C)(C)C)cc1N1C(=O)CCC1(C)C(=O)NC1CCCC1 (stereo unspecified)	-3.2	1	14	-0.1%	18	5.5
68	CC/C(O)=C1\C(=O)CCCC1=NCCc1c(C)[nH]c2ccc(C)cc12	4.8	-2	0	2.7%	-3	.
69	COc1ccc(-c2cnc3ncnn3c2N)cc1	0.4	-4	5	0.7%	1	0.8
70	CCOC(=O)C1CCCN(C(=O)c2ccc(NS(=O)(=O)c3ccc4[nH]c(=O)[nH]c4c3)cc2)C1 (stereo unspecified)	1.0	3	?	-3.6%	1	2.2
71	CCCCNC(=O)COC(=O)c1ccccc1F	-7.4	-1	6	0.4%	6	0.6
72	Nc1nc(Nc2ccccc2F)nc(NCc2ccccc2)c1[N+](=O)[O-]	-4.9	-27	.	12%	4	1.2
73	CC(C)(C)CC(=O)Nc1nnc(SCC(=O)NC2CCCC2)s1	-3.9	-3	-1	1.2%	-1	-0.3
